# Rango dissoc inh – prevents RanGTP from dissociating the Rango-importin beta complex; AID 540253; Biochemical FRET Rango-importin beta, RanGTP-induced dissociation; Potency, µM (titrated, usually from 46.1 µM), for inactives: at the top dose activity change, negative = inhibition; actives 0.071% (n = 340,000); active means falling FRET ratio curve, often poorly fitted, with flat reads before Ran was added; inconclusive means other falling curves, or compound fluorescence or quenching; inactive means flat or rising ratio curve;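 also: potency is read from the fitted curve at half-maximal effect; % of control where 0% means no effect; nearly all actives have a fitted effect of over 45% in size; -100% = wells without RanGTP and RCC1; the record marks most hits as doubtful in a second field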
#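 Rango/importin beta premix (0.1/0.25 uM final), PBS + 1 mM DTT + 0.02% Tween-20 + 0.1% BSA; cpd 5 min RT; FRET pre-read; + RanGTP-RCC1 (0.6 uM Ran, 2 mM GTP, 0.2 uM RCC1); 45 min RT; FRET post-read, ex 430, em 486/530 nm.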
# miR-21 reporter – miR-21 reporter, rising signal; HeLa miR-21 FLuc reporter, luciferase, 48 h; Potency, µM (doses to about 38.3 µM), inactives show top-dose reporter change, positive = more light; 340,000 tested, under 10 active; AID 2288; active = well fitted rising curve with a large enough effect; inconclusive = small, poorly fitted or top-dose-only effect; inactive = no such curve, though single readings can be large or run the other way;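 also: % of control where 0% means no effect; miR-21 action dims this reporter so a rising signal means less miR-21 action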
#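 Compounds were titrated across several concentrations (up to approximately 40 uM) and incubated 48 hours with HeLa miR-21-FLuc reporter cells (miR-21 target sequence downstream of FLuc, endogenous miR-21). Readout was firefly luciferase luminescence after lytic detection reagent.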
# Rango complex inh – inhibitors of Rango-importin beta complex formation; Rango CFP/YFP FRET sensor + importin beta, 45 min; Potency, µM (highest dose often 92.2 µM), for the others: at the highest dose inhibition of complex formation; actives 0.031% (n = 340,000); Q14974; active = rising FRET ratio curve, often small or poorly fitted; inconclusive = mostly compound fluorescence or quenching in the first reads; inactive = flat curves in all reads;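 also: potency is read from the fitted curve at half-maximal effect; 0% = DMSO wells and 100% = buffer wells lacking importin beta; nearly all actives have a fitted effect of over 15% in size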
#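 FRET biosensor (snurportin 1 IBB flanked by EYFP and cerulean), 50 nM, with compound 5 min, then 0.125 microM importin beta in PBS, 1 mM DTT, 0.02% Tween-20, 0.1% BSA. CFP/YFP ratio read after 45 min at room temperature; pre-read flags interference.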
# GLA inh pH 4.5 – inhibitors of human alpha-galactosidase A at pH 4.5. P06280. purified enzyme, 4-MU-alpha-Gal fluorescence, pH 4.5. activity change, negative = inhibition, % at 105 µM. 230,000 tested, under 10 active; inconclusive = small, poorly fitted or top-dose-only inhibition, or a rising curve; inactive = flat fitted curve, though single readings scatter; no compound was filed as active;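 also: 0% = full activity with enzyme and -100% = basal without enzyme; dose as in the result columns while the protocol names 77 µM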
# Target sequence (P06280 whole entry, looked up): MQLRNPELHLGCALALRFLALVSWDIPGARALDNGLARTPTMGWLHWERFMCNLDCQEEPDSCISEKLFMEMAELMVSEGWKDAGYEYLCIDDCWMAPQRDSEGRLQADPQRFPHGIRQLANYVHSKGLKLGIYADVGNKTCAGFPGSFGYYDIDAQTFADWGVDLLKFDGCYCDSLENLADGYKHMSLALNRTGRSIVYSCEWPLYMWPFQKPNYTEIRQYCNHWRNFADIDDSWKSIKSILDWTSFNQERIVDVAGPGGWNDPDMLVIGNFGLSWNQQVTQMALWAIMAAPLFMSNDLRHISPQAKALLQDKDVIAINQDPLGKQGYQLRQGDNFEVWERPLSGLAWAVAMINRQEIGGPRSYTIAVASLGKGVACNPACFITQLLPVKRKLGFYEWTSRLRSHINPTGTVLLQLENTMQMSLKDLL
# Active calls of the source: *; u = inconclusive; x = no result given. Some of the compounds tested, so the mix of outcomes need not match the whole.
Rango dissoc inh,miR-21 reporter,Rango complex inh,GLA inh pH 4.5,canonical_smiles
12%,0%,-2.8%,3,CCOC(=O)Cn1nc(C)cc1NC(=O)c1ccncc1
-17%,1%,-0.6%,5,Cc1cc(C)c(S(=O)(=O)Nc2cccc(S(=O)(=O)NC3=NCCC3)c2)c(C)c1
x,-3%,x,11,N/C(=N\c1nc(CSc2nnnn2-c2ccccc2)cc(=O)[nH]1)Nc1ccccc1
-3%,u,5.8%,7,N#CCCN(C(=O)CCl)c1cccc(Cl)c1
-21%,-20%,u,-1,Cc1c(C)c2ccc(OCC(=O)N(C)C)c(C)c2oc1=O
u,9%,u,-4,O=c1cc(C(F)(F)F)nc(-n2[nH]c3c(c2=O)CCCC3)[nH]1
0%,-6%,-0.3%,x,COc1ccc(OC)c2c1cc(C(=O)N[C@H](C(=O)N1CCC(C(=O)O)CC1)C(C)C)n2C
-6%,-11%,0.0%,11,Cc1ccc(F)cc1NC(=O)c1cnccn1
11%,-4%,0.9%,2,COc1ccc(-c2csc(NC(=O)c3ccccc3C(=O)O)n2)cc1
0%,21%,-1.0%,x,COc1cc2ccccc2cc1C(=O)N(CCN(C)C)c1nc2c(OC)ccc(OC)c2s1
-15%,-4%,4.1%,0,CC1(C)Cc2nc3oc4c(=O)n(CC(=O)Nc5cccc(Cl)c5)cnc4c3cc2CO1
2%,-32%,1.7%,-2,COc1ccc(NC(=O)c2cc(-c3ccccc3Cl)no2)cc1
-1%,6%,2.0%,-1,C=CCn1c(-c2cccc(OC)c2OC)n[nH]c1=S
x,-8%,x,-4,CCc1nc2c(sc3nc(N4CCOCC4)c4c(c32)CC(C)(C)OC4)c(=O)o1
-6%,-2%,-0.9%,-1,COc1ccccc1CNC(=O)CCn1c(=O)oc2ccccc21
-8%,7%,1.6%,0,COc1ccc(OCc2nnc3n2N=C(c2ccc(OC)cc2)CS3)cc1
-6%,10%,0.6%,x,O=S(=O)(Nc1ccccc1Cl)c1cc(NC(=S)NCCN2CCOCC2)ccc1Cl
-1%,-1%,1.2%,5,CCOC(=O)N1CCN(C(=O)c2ccc(NS(C)(=O)=O)cc2)CC1
2%,x,-0.6%,x,C[C@H](CO)N1C[C@H](C)[C@@H](CN(C)Cc2ccc(-c3ccccc3)cc2)Oc2c(NC(=O)Cc3ccccc3)cccc2C1=O
u,18%,-0.3%,x,COc1cccc(CN2CCC(n3nccc3NC(=O)CCCc3ccccc3)CC2)c1
-17%,15%,u,0,COC(=O)C1C(=O)C2=C(CC1C)NC(C)=C(C(=O)OCc1ccc(OC)cc1)C2c1ccc(C)o1 (stereo not given)
-13%,5%,-2.6%,4,COCC(=O)Oc1c(Sc2ccccc2[N+](=O)[O-])c(C)nn1C(C)(C)C
11%,-1%,13%,x,COc1ccc(NC(=O)C2C3C=CC4(O3)C2C(=O)N(CCN2CCCCC2C)C4C(=O)NC2CCCCC2)cc1 (stereo not given)
3%,-3%,2.2%,2,COc1cc(/C=C2\C(=O)N(CCC#N)N=C2C)c(Br)cc1OC(C)C
14%,-1%,-1.2%,-2,COc1cc(/C=N/NC(=O)CSc2cc(C)c(Br)cc2C)ccc1O
0%,x,-2.5%,x,Cc1ccc2sc(N(CCCN(C)C)C(=O)c3ccc(S(=O)(=O)N(C)C4CCCCC4)cc3)nc2c1C
-15%,-31%,-4.3%,x,CN(C)CCN(C(=O)c1ccc(S(=O)(=O)N(C)c2ccccc2)cc1)c1nc2ccc(Cl)cc2s1
7%,x,2.0%,x,C=CC[C@H](CC(=O)N(CCO)Cc1ccccc1)C(=O)N[C@@H](C)COC(=O)[C@H](CC=C)CC(=O)OC(C)(C)C
-11%,-6%,3.0%,3,C=CCn1c(=NC(=O)C2COc3ccccc3O2)sc2cc(S(N)(=O)=O)ccc21 (stereo not given)
-7%,-1%,-0.2%,-6,CCNC(=S)N1CCN(CCNC2=CC(=O)CC(C)(C)C2)CC1
0%,x,-0.5%,x,CCOC(=O)Nc1ccc([N+](=O)[O-])cc1OC
-2%,0%,1.7%,6,Cn1c(=O)oc2cc(S(=O)(=O)NCCC(=O)NC3CCCC3)ccc21
10%,x,-4.4%,x,Nc1ncn([C@H]2C[C@H](O)[C@@H](CO)O2)c(=O)n1
0%,-37%,-0.6%,4,CNc1nc(-c2ccc([N+](=O)[O-])cc2)cs1
0%,9%,-3.3%,-4,COc1ccccc1-n1c(-c2ccc(Cl)cc2)c[nH]c1=S
2%,x,-3.3%,x,NC(=O)C1CCCN(CC(=O)Nc2cc(S(=O)(=O)N3CCOCC3)ccc2N2CCCC2)C1 (stereo not given)
8%,-31%,4.3%,3,Cc1ccc(NC(=O)Cn2cccc2)c(Br)c1
-25%,x,2.9%,x,Cc1nnc(NC(=O)C2CSC3(C)CCC(=O)N23)s1 (stereo not given)
1%,4%,4.9%,x,O=C(O)c1nn(CCOc2ccc(Cl)cc2Cl)c(=O)c2ccccc12
-9%,-3%,-2.8%,x,O=C(c1ccco1)N(Cc1cccc(Cl)c1)C1CCS(=O)(=O)C1 (stereo not given)
-4%,2%,0.3%,-3,CCOC(=O)c1nn(-c2cc(C(=O)OC)cc(C(=O)OC)c2)cc1O
16%,-2%,2.8%,x,CC(=O)c1cccc(NC(=O)c2cc(=O)[nH]c3ccccc23)c1
-3%,x,-4.6%,x,Cc1cccc(C)c1NC(=O)COC(=O)[C@@H]1CCCN1C(=O)c1cccs1
-1%,2%,-0.4%,3,O=C(O)CCCn1cc(NC(=O)c2ccco2)cn1
-1%,-9%,-1.8%,-2,O=C(CSc1nnc(-c2ccccc2Br)o1)N1CCc2ccccc2C1
u,x,19%,x,COc1cccc2c1C(=O)c1c(O)c3c(c(O)c1C2=O)CC(O)(C(C)=O)CC3OC1CC(O)C(O)C(C)O1 (stereo not given)
18%,-8%,-0.2%,2,COc1ccnc(Oc2ccc(F)cc2)c1C(=O)N/C=N/OCc1ccc(F)cc1
4%,-38%,1.6%,-5,Cc1cc(C)nc(NC(=O)/C=C/c2ccccc2Cl)n1

# Fetched one by one from the entries so far (6):
Rango dissoc inh,miR-21 reporter,Rango complex inh,GLA inh pH 4.5,canonical_smiles
4%,-38%,1.6%,-5,Cc1cc(C)nc(NC(=O)/C=C/c2ccccc2Cl)n1
-4%,2%,0.3%,-3,CCOC(=O)c1nn(-c2cc(C(=O)OC)cc(C(=O)OC)c2)cc1O
-1%,-9%,-1.8%,-2,O=C(CSc1nnc(-c2ccccc2Br)o1)N1CCc2ccccc2C1
16%,-2%,2.8%,x,CC(=O)c1cccc(NC(=O)c2cc(=O)[nH]c3ccccc23)c1
18%,-8%,-0.2%,2,COc1ccnc(Oc2ccc(F)cc2)c1C(=O)N/C=N/OCc1ccc(F)cc1
-1%,2%,-0.4%,3,O=C(O)CCCn1cc(NC(=O)c2ccco2)cn1

# More results.
Rango dissoc inh,miR-21 reporter,Rango complex inh,GLA inh pH 4.5,canonical_smiles
-3%,9%,-1.4%,-2,COc1ccc(N2CCN(C(=O)CN(CCc3ccccc3)S(C)(=O)=O)CC2)cc1
13%,-19%,-1.7%,5,C[C@H](N)c1nnc(SCc2c(Cl)cccc2Cl)o1
30%,-3%,-1.6%,5,COc1cccc(CNC(=O)CCC2CCCN(C(=O)c3cscn3)C2)c1 (stereo not given)
9%,-1%,0.1%,x,C[C@H](NC(=O)c1ccccc1)C(=O)N1CCN(c2ccccc2)CC1
10%,10%,-0.2%,-2,Oc1ccc(Nc2nnc(-c3ccc(O)cc3)c3ccccc23)cc1
-2%,x,1.6%,x,CN1CCN(S(=O)(=O)c2ccc(N3CCN(c4ccc(O)cc4)CC3)c([N+](=O)[O-])c2)CC1
u,-1%,0.8%,-3,Cc1cccc(/N=C/c2c(C)[nH]n(-c3ccccc3)c2=O)n1
-7%,-27%,4.3%,1,COc1ccc(/C=C/C(=O)Nc2c(C)nn(C)c2C)cc1COc1ccc(Cl)cc1Br

# In a second layout: two of the compounds above
SMILES | Rango dissoc inh | miR-21 reporter | Rango complex inh | GLA inh pH 4.5
Oc1ccc(Nc2nnc(-c3ccc(O)cc3)c3ccccc23)cc1 | 10% | 10% | -0.2% | -2
CN1CCN(S(=O)(=O)c2ccc(N3CCN(c4ccc(O)cc4)CC3)c([N+](=O)[O-])c2)CC1 | -2% | x | 1.6% | x

# Other compounds follow.
Rango dissoc inh,miR-21 reporter,Rango complex inh,GLA inh pH 4.5,canonical_smiles
45%,-3%,1.8%,x,COc1ccc(N2C(=O)c3cccc4cccc(c34)C2=O)cc1
-14%,13%,0.2%,-3,CCOC(=O)C1(CCC(C)C)CC(CSc2nc3ccccc3[nH]2)OC1=O (stereo not given)
7%,x,0.8%,x,CCN(CC)CCNC(=O)c1ccc(NC(=O)C2CC(=O)N(c3ccc4c(c3)OCCO4)C2)cc1 (stereo not given)
-2%,-9%,-1.0%,5,CCOC(=O)c1cnc(SC)nc1Sc1ccccc1
18%,7%,0.1%,x,CC1=C(C(=O)Nc2ccccc2C(=O)NCc2ccccc2)SCCO1
0%,-24%,1.6%,6,Cc1ccc2nc(-c3cccc(Br)c3)cc(C(=O)Nn3cnnc3)c2c1
0%,4%,-1.2%,1,Cc1[nH]n(-c2ccccc2)c(=O)c1/C=N/NC(=O)COc1ccccc1[N+](=O)[O-]
10%,0%,5.0%,-2,COc1ccccc1S(=O)(=O)Cc1ccc(C(=O)N2CCCC2)o1
0%,13%,-4.6%,-10,Cc1ccc(-c2nc(-c3cccnc3)sc2CC(=O)Nc2ccc(C)c(Cl)c2)cc1
-2%,u,1.0%,7,S=C(Nc1cccc(Cl)c1)Nc1cccc2cnccc12
-1%,0%,-1.4%,0,Cc1ccccc1-n1nc(C)c2cc(C(=O)N3CCN(S(=O)(=O)c4ccccc4)CC3)sc21
-3%,-1%,-3.0%,8,O=C(NC1CC2CCCC(C1)N2Cc1ccccc1)C1CCCCC1 (stereo not given)
-8%,-13%,-2.2%,5,O=C(COc1cccc(Cl)c1)NNC(=S)Nc1ccccc1
14%,x,0.1%,x,Cc1nnc(-c2ccc(N3CCOCC3)c([N+](=O)[O-])c2)o1
-27%,0%,u,4,Cn1c(=O)c2c(ncn2CC(=O)Nc2nccs2)n(C)c1=O
-5%,-6%,u,x,C[N+](C)(C)CC(=O)N/N=C/c1c2ccccc2cc2ccccc12
21%,14%,3.4%,x,CCOC(=O)Cn1c(=O)c2c(nc3n2CCCN3Cc2ccccc2)n(C)c1=O
-5%,2%,-0.6%,-13,CN(CC(=O)O/N=C(\N)c1ccc([N+](=O)[O-])cc1)S(=O)(=O)c1ccc2ccccc2c1
2%,2%,3.9%,5,NC(=O)CSc1nnc(CNc2cccc(Cl)c2)n1CCc1ccccc1
4%,x,4.4%,x,Cc1cc(C)c(C)c(S(=O)(=O)N[C@@H](C)C(=O)OCC(=O)NC2CCCC(C)C2C)c1C (stereo not given in full)
1%,x,-0.7%,x,COc1ccc(Cl)cc1NC(=O)CN(C)C(=O)c1sccc1-c1ccccc1
-18%,4%,2.2%,-16,O=S(=O)(NCc1cc(-c2ccc(Cl)cc2)no1)c1ccc(Cl)cc1
11%,x,-0.1%,x,Cc1ccc(S(=O)(=O)N[C@@H](C)C(=O)OCC(=O)N2c3ccccc3NC(=O)C2(C)C)cc1
10%,1%,8.7%,1,CC12c3ccccc3C(c3ccccc31)C1C(=O)N(Cc3cccnc3)C(=O)C12 (stereo not given)
1%,13%,2.1%,1,CC(c1nccs1)N(C)C(=O)CCc1nnc(-c2ccc(-c3ccccc3)cc2)o1 (stereo not given)
-11%,-5%,-2.3%,-22,S=c1[nH]nc(COc2ccccc2)n1/N=C/c1ccco1
2%,-3%,-1.3%,8,CCCCC(=O)Nc1ccc(C(=O)NNC(=O)c2ccccc2Br)cc1
12%,0%,4.0%,6,COc1ccc(OC)c(NC(=O)c2ccc3c(=O)n(CCc4ccccc4)c(=S)[nH]c3c2)c1
-5%,0%,4.1%,-15,CC(=O)c1ccc(C(=O)N2CCCC(CCC(=O)N(C)CCc3ccccn3)C2)s1 (stereo not given)
12%,-21%,-0.1%,0,COc1ccccc1CNC(=O)C1CC(c2ccc([N+](=O)[O-])cc2)=NO1 (stereo not given)
-10%,3%,1.2%,x,COC(=O)c1ccc(COC(=O)CNC(=O)c2cccs2)cc1
